TRPV1 potentiator: enhances activation of the human vanilloid receptor TRPV1. TRPV1-expressing cells, Fluo-8 calcium influx, capsaicin EC20 potentiation; host cell line not named in the record; control for the full effect not named in the record. potentiation, % at 8.33 µM. 320,000 compounds, 0.02% hits. AID 540277; active means potentiation above 80%; inconclusive means 30% to 80%; inactive means below 30%; also: 0% is about no effect
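Cells expressing TRPV1 were dye-loaded with Fluo-8 and read kinetically: 10 s baseline, 3 min after compound (agonist portion), then 2 min after EC20 capsaicin (allosteric enhancer portion). Calcium-bound dye fluorescence at 480/520 nm.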
gsp ag: gsp mutant agonism; gsp mutant cells, cAMP HTRF, 30 min; control for the full effect not named in the record; Potency, µM (top dose mostly 76.9 µM), for inactives: at the top dose activation (cAMP increase), actives largely listed as activators; 340,000 compounds, 0.13% hits; active = well fitted activation curve with a large enough effect; inconclusive = small, poorly fitted or top-dose-only effect, or another doubt; inactive = no such curve, though single readings can be large or run the other way; cell line not stated here;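 also: phosphodiesterase inhibitor Ro 20-1724 added with compounds to block cAMP breakdown; potency is read from the fitted curve at half-maximal effect; nearly all actives have a fitted effect of over 60% in size; about a fifth of the inactives were tested at one dose only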
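Cells stably selected in G418 were plated at 2000/well, grown 16-24 hr, then given compounds in DMSO with the PDE inhibitor […] (300 uM solution added) for 30 min at 37C; cAMP was read by HTRF.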
gsp antagonist: antagonists of gsp mutant (McCune-Albright syndrome). gsp-mutant cells, cAMP HTRF, 30 min; control for the full effect not named in the record. Potency, µM (top dose mostly 76.9 µM), for the others: at the highest dose activity change, negative = inhibition, hits mostly inhibitors. 340,000 compounds, 0.4% hits; active = falling curve of any shape with a large fitted effect; inconclusive = falling curve, mostly with a smaller effect; inactive = flat or rising curve; cell line not stated here;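 also: intracellular cAMP measured with PDE inhibitor Ro 20-1724 present during compound exposure; potency is read from the fitted curve at half-maximal effect; % is scaled to controls: 0 for no effect and ±100 for the full control effect; nearly all actives have a fitted effect of over 65% in size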
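HTRF cAMP read-out (cAMP-d2 plus anti-cAMP antibody-K in lysis buffer, 30 min RT). Before lysis, cells are exposed to compounds with […] for 30 min at 37C in DPBS containing Ca/Mg, BSA and Tween 20.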
ClpP mod: qHTS Assay for Activators of ClpP. ATP-dependent Clp protease proteolytic subunit (Bacillus subtilis (strain 168)), P80244. purified B. subtilis ClpP, FRET peptide cleavage, 20 min. Potency, µM (doses to about 57.5 µM), without a hit: at the top dose activity change, negative = active. 340,000 compounds, 1.9% hits. AID 651965, 2013; active = well fitted falling curve with a large enough effect; inconclusive = small, poorly fitted or top-dose-only effect; inactive = no such curve, though single readings can be large or run the other way; also: potency is read from the fitted curve at half-maximal effect; the source files actives as falling curves though it sought activators and does not explain the sign; nearly all actives have a fitted effect of over 65% in size; many hits overshoot -100%
Target sequence (P80244 whole entry, looked up): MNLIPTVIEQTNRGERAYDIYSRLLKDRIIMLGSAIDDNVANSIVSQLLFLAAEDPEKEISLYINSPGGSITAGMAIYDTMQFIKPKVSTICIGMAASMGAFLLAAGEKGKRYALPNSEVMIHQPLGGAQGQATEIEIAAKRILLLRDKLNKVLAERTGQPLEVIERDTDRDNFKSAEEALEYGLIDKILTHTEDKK
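Purified B. subtilis ClpP, 10 microg/mL final in Tris/HCl pH8 with KCl, BSA, glycerol and Tween-20, cleaved an Abz/nitrotyrosine-quenched decapeptide. Fluorescence (ex 320, em 430) was read at 0 and 20 min at room temperature. Delta was normalized to 5.8 microM ADEP and DMSO/no-enzyme controls.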
Sfp inh: Sfp phosphopantetheinyl transferase inhibition; AID 1490; 310,000 compounds, 3.5% hits; Potency, µM, for inactives: max response, negative = inhibition, usual class: inhibitors; Q9F4F7; Biochemical Sfp PPTase activity, qHTS; active = well fitted inhibition curve with a large enough effect; inconclusive = small, poorly fitted or top-dose-only effect, or another doubt; inactive = no such curve, though single readings can be large or run the other way;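 also: the enzyme is Sfp with the accession as filed and its product quenches rhodamine fluorescence; potency is read from the fitted curve at half-maximal effect; 0% = enzyme reaction without inhibitor and -100% = no enzyme wells; top concentration of the series not given in the record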
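With Hepes-Na pH 7.6 buffer containing 10 mM MgCl2, Sfp (15 nM) modified BHQ-2-YbbR (12.5 uM) using rhodamine-CoA (5 uM). Two reads 30 minutes apart at 525/598 nm yielded each well's rate.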
Menin-MLL FL inh: inhibitors of human menin-MLL interaction, wild-type MLL peptide | 290,000 tested, under 10 active | Fluorescence polarization, fluorescein-MLL peptide displacement from menin | FP activity change, % at 61.4 µM; inconclusive = falling polarisation curve, or a change in total fluorescence; inactive = total fluorescence flat and polarisation flat or rising; no compound was filed as active; the % refers to the polarisation; negative = inhibition;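 also: % of control where 0% means no effect; inhibitors lower the polarisation; unlabelled MLL peptide was the positive control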
TRPML1 inh: human mucolipin-1 channel inhibition; activity change, negative = inhibition, % (test concentration not listed); AID 624415; Q9GZU1; 390,000 compounds, 0.02% hits; TRPML1-inducible cells, Ca2+ dye fluorescence, FDSS; stronger effect = lower value; inhibition of EC80 agonist-evoked calcium signal; in the data active means activity change below about -50%; inconclusive means about -30% to -50%; inactive means above about -30%;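 also: stimulus is agonist 54-4 at its EC80 concentration; % is scaled to controls: 0 for no effect and ±100 for the full control effect; compound concentration not given in the record; the text of the record puts the active cut at -80%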
Target sequence (Q9GZU1 whole entry, looked up): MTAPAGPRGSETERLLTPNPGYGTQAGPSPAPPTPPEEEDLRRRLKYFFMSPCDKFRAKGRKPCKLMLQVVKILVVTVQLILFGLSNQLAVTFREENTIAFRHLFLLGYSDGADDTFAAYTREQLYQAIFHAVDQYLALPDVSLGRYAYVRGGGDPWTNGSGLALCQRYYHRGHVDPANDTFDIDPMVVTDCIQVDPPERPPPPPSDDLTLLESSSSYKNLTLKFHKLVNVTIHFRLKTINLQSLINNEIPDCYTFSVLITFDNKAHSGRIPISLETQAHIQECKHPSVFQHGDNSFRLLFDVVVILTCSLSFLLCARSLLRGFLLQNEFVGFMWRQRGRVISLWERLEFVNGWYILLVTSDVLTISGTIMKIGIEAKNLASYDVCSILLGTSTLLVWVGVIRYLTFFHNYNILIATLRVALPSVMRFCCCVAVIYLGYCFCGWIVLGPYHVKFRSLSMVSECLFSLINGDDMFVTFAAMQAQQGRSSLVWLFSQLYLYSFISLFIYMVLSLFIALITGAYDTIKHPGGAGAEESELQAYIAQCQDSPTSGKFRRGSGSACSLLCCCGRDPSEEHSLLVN
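Calcium fluorescence in TRPML1-DL cells induced overnight with Tet: a 110 s read after compound pin addition, then a 110 s antagonist read after challenge with 54-4 at 4 uM final (EC80).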
The depositor's hits bear a star; ? = inconclusive; . = not tested or not shown; & = joins results of further samples; [ ] = dose if it differs, or a comment.

SMILES	TRPV1 potentiator	gsp ag	gsp antagonist	ClpP mod	Sfp inh	Menin-MLL FL inh	TRPML1 inh
O=C1C2C3C=CC(CC3)C2C(=O)N1c1ccccc1 (stereo not given)	17	-2%	0%	-2.1%	18%	-0.4	.
Cc1cc(=O)oc2cc(O)c(N=Nc3ccccc3)cc12	13	-31%	0%	-4.8%	-4%	-1.2	56
CCOC(=O)c1c(C)[nH]c(C)c1S(=O)(=O)N1CCN(c2ccc([N+](=O)[O-])cc2)CC1	28	-40%[inhibitor]	-25%	-1.0%	1%	1.7	-5
CCOC(=O)N1C(=O)NC(=O)C1c1ccc(Cl)cc1 (stereo not given)	.	-3%	-6%	-8.5%	.	.	2
Cc1cccc(NC(=O)C(=O)NCCCN2CCOCC2)c1	-3	5%	-2%	-3.1%	6%	-3.5	10&-5
Cc1ccc(S(=O)(=O)N2CCN(C(=O)[C@H](Cc3ccccc3)NC(=O)c3ccco3)CC2)cc1C	-20	-45%[inhibitor]	-26%	-1.7%	.	.	-20
O=C(Cn1nnc(-c2ccccc2F)n1)NCc1ccco1	3	4%[15.4 µM]	.	.	3%	-5.7	14
Cc1csc(SCC(=O)Nc2cc(C(C)(C)C)nn2-c2ccccc2)n1	-3	-10%	-20%	-1.1%	2%	-0.7	-3
Cc1ccc(CNc2ncccc2-c2nc3cc(Cl)ccc3o2)cc1	-18	5%	-1%	?	16%	2.7	24
CC1(C)CC(=O)C2=C(C1)N(Cc1cccnc1)C(=O)C2(NC(=O)C1CC1)C(F)(F)F (stereo not given)	-3	0%	6%	-0.1%	15%	-1.7	-7
CCCCn1c(NC(C)CC)nc2c1c(=O)[nH]c(=O)n2C (stereo not given)	-6	-4%	2%	-0.6%	11%	0.2	10
CCN(CC(=O)Nc1cc(C)on1)CC(=O)Nc1ccccc1C(F)(F)F	2	-1%	-7%	-10.0%	.	.	16
Cc1cc(C)cc(NC(=O)N2CCCC2C(=O)Nc2ccc(-n3cnnn3)cc2)c1 (stereo not given)	?	-8%	-4%	-0.8%	-2%	0.8	7
COc1ccc2c(CN3CCN(S(=O)(=O)c4cccs4)CC3)cc(=O)oc2c1	-7	0%	-14%	-14%	-6%	14	-14
CCOc1ccc(/C=N/Nc2cc(N3CCOCC3)ncn2)c(O)c1	.	-50%[inhibitor]	.	-0.3%	.	.	-3
Cc1c(C(=O)NCc2cccnc2)oc2ccc(S(=O)(=O)N3CCC4(CC3)OCCO4)cc12	-9	-7%	6%	1.3%	5%	6.4	-4
CCC(Cc1ccccc1)NC(=O)C1CCCCC1 (stereo not given)	4	21%	16%	-1.7%	16%	5.9	14
COC(=O)c1c(C)nc2nonc2c1N	6	32%	10%	-17%	1%	-2.5	1
COc1ccc(NC(=O)CN(C)C(=O)CCCN2C(=O)c3cccc4cccc(c34)C2=O)cc1	6	-11%	-2%	?	.	.	-2
CCOC(=O)N1CCN(C(=O)c2cnc3n(c2=O)CCS3)CC1	-1	-25%	2%	-1.0%	11%	2.3	4
COc1ccc(C(=O)N2CCN=C2SCc2cccnc2)c(OC)c1	5	-4%	1%	-1.7%	13%	3.6	33
CCOc1ccc(C(=O)Nc2ccc3c(c2)OCCO3)cc1OC	5	4%	3%	0.0%	3%	1.3	4
Cc1ccc2c(CN3CCN(Cc4ccccc4)CC3)cc(=O)oc2c1	11	-14%	0%	-4.3%	2%	-0.5	-14
C/C=C/c1ccc(OCC(=O)OCc2csc(CC(=O)Nc3ccccc3C)n2)c(OC)c1	-5	11%	-7%	-1.8%	-2%	1.6	31
CC(C)(C)OC(=O)N1CCOCCOCCN(C(=O)OC(C)(C)C)CCOCCOCC1	23	-16%	0%	1.5%	20%	1.6	0
Nc1nc(N2CCOCC2)nc2ccccc12	-5	26%	16%	84%	13%	1.2	3
COc1ccccc1NC(=O)Cn1cc(C#N)c2ccccc21	0	8%	9%	-1.7%	8%	2.3	9
C#CCOCCOCCOCCNc1nc(N2CCN(C(=O)[C@H]([C@@H](C)CC)n3cc(CCCCN)nn3)CC2)nc(N2CCN(C(=O)[C@H](CCCCN)n3cc(CC(C)O)nn3)CC2)n1 (stereo not given in full)	?	.	3%	-0.5%	.	.	-6
COc1ccc(Cc2nn[nH]n2)cc1	-2	-47%	10%	1.8%	-12%	3.3	2
Cc1[nH]c2ccc(C(=O)O)cc2c1C	4	0%	-9%	-11%	-11%	-0.3	10
O=C(CSc1nc2ccccc2c(=O)n1-c1ccccc1)c1c[nH]c2ccccc12	18	-2%[15.4 µM]	-2%	.	13%	8.1	-2
CCNC(=O)c1ccc(C2SCC(=O)N2Cc2ccco2)cc1 (stereo not given)	3	0%	12%	-0.9%	-12%	1.7	2
O=C(CN1C(=O)C(c2ccccc2)Oc2cccnc21)NCc1ccccc1F (stereo not given)	-7	38%	-4%	-2.3%	6%	-2.7	34
Cc1cccc(N2CCN(S(=O)(=O)c3ccc4c(c3)NC(=O)CO4)CC2)c1C	0	?	15%	2.6%	0%	.	-2
CC1(C)CC(NCCC(c2ccccc2)c2ccco2)CCO1 (stereo not given)	-3	?	2%	1.8%	11%	3.2	7
Cc1c(NC(=O)c2ccc(CC(C)C)o2)c(=O)n(-c2ccccc2)n1C	-1	-22%	4%	.	6%	10.0	17
COc1ccc(NC(=O)CCC2CCCC2)cc1OC	0	2%	-8%	0.0%	3%	1.2	4
Cc1cccc(N=Nc2c(N)n[nH]c2-c2ccc(Cl)cc2)c1	19	9%	10%	-2.9%	11%	0.5	11
Cc1nn(-c2ccccc2)c2sc(-c3nnc(SCC(=O)O)o3)cc12	-3	?	3%	?	12%	1.0	0
O=C(Nc1cccc2nsnc12)c1ccc(-c2cccc(Cl)c2)o1	18	-1%	-1%	-15%	25µM*	?	21
O=C(CSc1nc2ccccc2c2c1CCCC2)N1CCOCC1	-17	3%[15.4 µM]	-16%	.	2%	8.5	0
COC(=O)c1ccc(NC(=O)C2C3CCC(C3)C2C(=O)O)cc1 (stereo not given)	11	-4%	0%	-2.8%	12%	2.4	-11
O=C(N/N=C/c1cccc([N+](=O)[O-])c1)C1COc2ccccc2O1 (stereo not given)	9	-36%[15.4 µM]	-20%	.	-2%	-2.4	-3
Cc1cc(C)c(N2C(=O)C3C4CC(=O)C(c5ccccc54)C3C2=O)c(C)c1 (stereo not given)	-24	-4%	6%	0.3%	21%	-3.5	3
C=CCNC(=S)NNC(=O)c1cccnc1	1	14%[15.4 µM]	8%	.	13%	4.9	0
COc1ccccc1OCC(=O)N1CCCC(Nc2ccc(F)c(F)c2)C1 (stereo not given)	6	-17%	-1%	2.0%	9%	.	-11
Cc1ccccc1N1CC(O)(c2cccs2)[N+]2=C1CCCC2 (stereo not given)	1	18%[15.4 µM]	9%	.	9%	-3.2	17
O=C(Nc1c(F)cc(F)cc1Br)c1cc(S(=O)(=O)N2CCN(c3ccccn3)CC2)ccc1F	-5	-12%	-14%	-20%	-3%	3.7	-11
CCCCNC(=O)COC(=O)CNC(=O)c1cc(Cl)cc([N+](=O)[O-])c1	10	-11%[15.4 µM]	.	.	5%	-1.3	1
O=C(NCc1ccco1)c1ccccc1NS(=O)(=O)c1ccc2c(c1)OCCO2	21	2%	-2%	32µM*	4%	0.7	35
C/C(=C\C(=O)c1ccccc1)Nc1ccc(O)cc1	1	-50%	-9%	-2.8%	-21%	5.2	-9
CC1CC(C)CN(S(=O)(=O)c2cccc(C(=O)N3CCN(c4ccc(F)cc4)CC3)c2)C1 (stereo not given)	-12	21%	?	0.6%	.	.	6
O=C1Nc2cc(C(=O)NCCCN3CCCC3)ccc2S/C1=C\c1ccccc1	-1	1%	2%	0.3%	-29%	-0.1	-1
COc1ccc2nc3n(c(=O)c2c1)-c1ccc(Cl)cc1C(=O)NC3Cc1ccc(O)cc1 (stereo not given)	.	.	-17%	-4.6%	.	.	-5
CN(C)CCNc1nc2c(c(=O)[nH]c(=O)n2C)n1CCOc1ccccc1	8	?	10%	-3.2%	24%	0.8	-6
CCS(=O)(=O)Nc1ccc2c(c1)OCO2	-6	-8%[15.4 µM]	-3%	.	16%	-1.2	9
N/C(=N\OC(=O)c1ccccc1)c1ccccn1	-14	-16%	5%	.	1%	4.3	18
Cc1ccc(OCc2cc(C(=O)N3CCN(CC(=O)NC(C)C)CC3)no2)cn1	-4	-6%	-2%	-1.5%	15%	-0.9	6
O=C(OCc1nc2ccccc2[n+]([O-])c1C(=O)c1ccccc1)c1cccnc1	1	8%[15.4 µM]	-4%	0.2%	11%	7.7	6
N#Cc1ccc(Oc2cccc(C(=O)O)c2)cc1C#N	14	2%	-21%	-1.2%	7%	0.4	7

Going on with the list.
SMILES	TRPV1 potentiator	gsp ag	gsp antagonist	ClpP mod	Sfp inh	Menin-MLL FL inh	TRPML1 inh
O=C(NCc1nnc(SCC(=O)N2CCc3ccccc32)o1)c1cccs1	?	0%[15.4 µM]	-26%	.	-2%	-1.1	14
Cc1ccc(NCc2ccc(Cl)nc2)c(NCc2ccc(Cl)nc2)c1	-11	-21%	?	.	7%	1.9	0
Cc1ccc(OCCC(=O)OC(C)C(=O)Nc2c(C)n(C)n(-c3ccccc3)c2=O)cc1 (stereo not given)	8	30%	11%	-2.2%	.	.	2
Cc1onc(C(=O)Nc2sc3c(c2C#N)CCCC3)c1[N+](=O)[O-]	2	-34%[inhibitor]	-3%	0.4%	50µM*	4.0	-6
COc1ccc(-n2ccc(=O)c(C(=O)O)n2)cc1	-9	-9%	5%	-7.1%	5%	7.1	-1
CCCCCOc1ccc(C(=O)CCC(=O)NC(C)c2ccc(S(N)(=O)=O)cc2)cc1 (stereo not given)	.	3%	3%	.	.	.	-10
Cc1cc(=O)[nH]c2c(C)cc(S(=O)(=O)N3CCCCC3)cc12	20	-34%[inhibitor]	3%	-3.3%	8%	.	13

Screening results: PubChem, National Center for Advancing Translational Sciences (NCATS)
